Compound activity from PubChem.
PrP UTR inh: inhibition of PrP 5' UTR reporter expression | hit rate 0.35% among 340,000 | AID 488862, 2010 | inhibition, % (test concentration not listed) | cell-based PrP 5' UTR mRNA reporter, plate reader;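 active = every replicate at 50% or more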;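 note: 0 = median of the neutral control wells; tested in H4 reporter cells; numbers are from one replicate; inactives centre near -14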
Mtb hypoxia rep: PubChem AID 1159583 | M. tuberculosis hypoxia-regulated fluorescent reporter, fluorescence | fluorescence inhibition, % (concentration not given with the values) | hit rate 0.1% among 300,000;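 active = 35 to 45% if threefold the growth effect, above 45% if 1.5-fold the growth effect; inactive = the rest, general growth blockers included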;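 note: wells of about 50 µL received 100 nL stock; 0% = vehicle wells and 100% = reference inhibitor wells; whole bacteria with a GFP reporter of the hypoxia response; strong numbers were not always called active; many hits fall short of the cut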
BJeLR lethal: MLPCN primary cell-based screen for lethality selective to Ras in HRASV12 cells; hit rate 0.17% among 300,000; AID 1554, 2009; inhibition, % (test concentration not listed); BJeLR (HRASV12) viability, CellTiter-Glo ATP luminescence, 48 h; reference of the scale not given here;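 active = replicate mean above 50%; inconclusive = above 50% but judged a plate artefact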;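 note: 50 nL library stock added to about 25 µL; numbers are from one replicate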
Sa ugtP lethal: growth inhibition of ugtP-null S. aureus, primary screen, RN4220 ugtP deletion, OD600 | 16 h; some inactives read as strong as hits | growth inhibition, % (test concentration not listed) | hit rate 0.54% among 330,000 | AID 1259309, 2017;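 active = z-score under -3 and OD600 up to 0.15 on both plates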;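 note: plate controls were untreated wells for no effect and antibiotic for full effect; wells of about 80 µL received 100 nL stock; the first replicate is given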
Autofluor counter: compound fluorescence in toxin protease inhibitor counterscreen; AID 624483; hit rate 3.1% among 360,000; fluorescence intensity (no concentration beside the values); compound autofluorescence counterscreen, microsphere flow cytometry; hits give high values;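 active = at least 3 SD above the mean of all compounds, about 16000 in these data; inconclusive = too few beads counted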;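 note: 100 nL of 1 mM stock went into each well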
RN4220 kill: growth inhibition of S. aureus RN4220, primary screen, OD600 | 16 h | inhibition, % (no concentration beside the values) | hit rate 0.33% among 330,000 | AID 1259311, 2017;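 active = z-score of -3 or lower and OD600 up to 0.18 on both plates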;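 note: plate controls were untreated cells for no effect and reference antibiotic for full effect; stock transfer was 100 nL into about 80 µL; one replicate is shown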
Mtb hypoxia rep growth: recorded beside Mtb hypoxia rep, whose call it bears; growth inhibition, %; measured here: M. tuberculosis growth (absorbance);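 0% = vehicle and 100% = reference antibiotic; read after six days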
Starred values were filed as active, the others as inactive; ? = inconclusive; . = not tested or not shown.

SMILES	PrP UTR inh	Mtb hypoxia rep	Mtb hypoxia rep growth	BJeLR lethal	Sa ugtP lethal	Autofluor counter	RN4220 kill
O=C(Cc1cccs1)NN=Cc1ccccn1	.	7.5	13.4	.	-1.5	.	3.0
Cc1ccc(CNC(=O)C2CCCN(S(=O)(=O)c3cccnc3)C2)cc1 (stereo not given)	-21.3	.	.	2.4	-0.1	2874	-0.9
CC(Sc1ccc(S(=O)(=O)N2CCCCCC2)cn1)C(N)=O (stereo not given)	-14.3	0.6	0.0	.	3.6	5528	-3.2
CCOC(=O)N1CCN(CC(=O)Nc2sc(CC)cc2C(=O)c2ccc(OC)cc2)CC1	-20.1	-7.1	8.8	1.6	-3.0	4320	-0.3
c1ccc(Cn2nnc3c(N4CCc5ccccc54)ncnc32)cc1	-30.3	5.7	1.3	6.1	-7.4	6860	3.4
CC(C)C(=O)Nc1ccc2c(c1)nc(CCN1CCCCC1)n2C	-23.7	11.2	3.2	-4.8	1.5	3791	3.3
COc1cc(C)nc(N(Cc2ccccc2)S(=O)(=O)c2ccc(C)cc2)n1	-27.3	13.4	2.6	0.3	9.1	4797	6.4
O=C(NCCCn1ccnc1)c1cc2c(ccc3ccccc32)o1	.	13.6	6.8	-2.2	4.0	.	8.5
Cc1nnc(SC/C=C/c2ccccc2)n(N)c1=O	-21.6	4.2	-4.9	.	2.2	3144	4.3
Cc1cc(=O)[nH]c(COc2ccccc2)n1	-7.9	.	.	12.3	-4.5	2220	-4.3
COc1ccc(S(=O)(=O)NNC(=O)C2COc3ccccc3O2)cc1[N+](=O)[O-] (stereo not given)	-9.1	4.3	2.4	-6.5	6.7	5991	3.3
CC(C)(O)C#Cc1ccc(C(=O)NC2CCCCC2)s1	-48.8	0.6	2.0	11.0	-9.5	3723	3.3
O=C(CSc1nc2ccccc2s1)NN=Cc1ccccc1C(=O)O	.	0.6	-5.0	.	4.7	.	9.4
CSCCC(NS(=O)(=O)c1ccccc1F)C(=O)N1CCCCCCC1 (stereo not given)	-2.0	-0.9	4.4	4.5	-5.2	6997	2.7
CCCCn1nnnc1SCC(=O)Nc1ccc(C)cc1	-5.0	.	.	-2.7	-0.3	.	6.8
CC(=O)OC(/C(O)=C(\C#N)c1nc2ccccc2[nH]1)c1ccccc1 (stereo not given)	-15.7	.	.	0.9	.	5433	.
CCc1ccc[n+](-c2[nH]c(=O)sc2C=N/N=C(\[O-])CCn2c3ccccc3c3ccccc32)c1	.	10.6	1.5	.	3.5	.	4.1
COc1ccc(/C=N/NC(=O)C(C)N(c2ccc(OC)cc2)S(C)(=O)=O)cc1 (stereo not given)	-8.3	.	.	-2.1	.	2739	.
O=C(NN=Cc1ccc(O)c(O)c1)c1cccc(S(=O)(=O)N2CCCC2)c1	.	6.4	-7.4	.	5.4	.	4.9
CC(=O)c1ccc(NC(=O)CSC(C)C)cc1	-18.5	-5.5	0.0	-3.4	-1.4	22011*	-3.8
O=C(NCc1ccccc1)C1CC(=O)N(c2ccc(OCC(=O)N3CCOCC3)cc2)C1 (stereo not given)	-23.2	-4.4	-6.1	-5.7	-0.4	3681	3.3
CCC(=O)N/N=c1/sc2ccccc2n1C	-14.7	.	.	4.1	.	?	.
Nc1c(C(=O)c2ccccc2)oc2ccc(Br)cc12	-67.8	4.7	5.3	-0.6	-35.2	20833*	4.3
O=C(O)CC(NCc1ccco1)C(=O)OCCc1ccccc1 (stereo not given)	-3.0	5.3	-1.6	3.7	1.7	2463	2.5
CC(=O)NC1C(OCc2ccccc2)OC2COC(c3ccccc3)OC2C1OCC(=O)O (stereo not given)	-5.9	4.0	-6.1	4.5	7.1	4128	2.2
O=C1Cc2cc(NS(=O)(=O)c3ccc([N+](=O)[O-])cc3)cc3c2N1CCC3	-14.1	3.1	2.0	7.2	6.8	?	22.9
CC(C)(C)c1sc(N)nc1-c1ccccc1	-11.0	3.6	1.3	20.6	-0.2	5814	1.1
COCCNC(=O)C1CCC(CNS(=O)(=O)c2ccc(F)cc2)CC1 (stereo not given)	-17.7	7.1	2.1	11.3	4.6	3827	0.9
N#Cc1ccc(C23CC4(C2)C(CN(Cc2ccc(-c5ccccc5)cc2)C4c2ccccc2)C3c2ccc(C(F)(F)F)cc2)cc1 (stereo not given)	.	8.2	12.8	.	0.9	.	7.7
CNc1ccc([N+](=O)[O-])cc1C(=O)O	-24.5	8.5	-2.2	-1.9	0.4	3776	3.8
O=c1[nH]c2ccc(S(=O)(=O)N3CCN(c4ccc(F)cc4)CC3)cc2o1	-22.9	14.4	16.3	6.7	0.5	4335	1.7
Cc1ccc(C(c2sc3nc(C)nn3c2O)N2CCN(c3ccc(F)cc3)CC2)cc1 (stereo not given)	-14.1	.	.	-1.5	3.2	3425	0.8
CCOC(=O)c1ccc(NC(=O)CCc2nc(-c3ccccc3)no2)cc1	-10.0	-2.2	0.5	-8.7	-1.9	4665	-5.9
Cn1ncc(Br)c1C(=O)Nc1ccc(F)cc1F	-8.1	17.7	10.1	-5.8	-2.5	3914	5.0
O=C(CN1CCN(S(=O)(=O)c2ccccc2[N+](=O)[O-])CC1)Nc1ccc(N2CCOCC2)cc1	-10.1	12.9	1.6	1.4	3.0	.	0.6
O=C(O)C1Cc2ccccc2CN1C(=O)c1ccccc1 (stereo not given)	-20.0	9.6	7.4	-1.5	5.7	10665	1.6
CCCC(C)NC(=O)c1nc(-c2ccccc2)n(-c2ccccc2)n1 (stereo not given)	-6.5	.	.	-3.1	-7.0	4319	4.9
O=C(c1cc(COc2ccc(-n3cncn3)cc2)on1)N1CCCC1	-29.8	7.4	1.4	9.2	3.4	6355	0.8
NC(=O)Cn1cc(/C=N\NS(=O)(=O)c2cccc([N+](=O)[O-])c2)c2ccccc21	-15.9	.	.	3.8	.	4788	.
Cn1nnnc1SCC(=O)Nc1cccc([N+](=O)[O-])c1	-41.4	-1.8	4.0	5.3	-8.1	3951	-2.3
CC(C)(C)OC(=O)CNC(=O)c1nc[nH]c1C(=O)NCC(=O)OC(C)(C)C	-27.4	3.5	-4.1	-2.6	-0.6	3635	2.4
CC(CS(=O)(=O)c1cccc2cccnc12)N1CCCCC1 (stereo not given)	-19.0	.	.	5.9	2.0	3074	2.6
Cc1cc(C)nc(SC(C)C(=O)O)n1 (stereo not given)	-7.8	-1.7	-1.9	-7.0	-3.9	6786	2.0
Cc1ccc(S(=O)(=O)N(CC(=O)N/N=C/c2cccc(C)c2)c2cccc3cccnc23)cc1	-12.6	.	.	-9.4	.	4609	.
CC(=O)C(c1ccccc1)C(c1ccccc1)C(C)[N+](=O)[O-] (stereo not given)	-13.0	8.6	0.8	-1.3	2.1	3966	1.8
CC[C@@]12C(=O)N(c3cccc(Br)c3)C(=O)N1C(c1ccc(F)cc1)C1C(=O)N(C3CCCCC3)C(=O)C12 (stereo not given in full)	.	-4.6	5.4	.	0.5	.	-2.2
COc1ccc(NC(=O)c2cc(C)nc3ccccc23)c(OC)c1	-19.9	.	.	-8.0	.	6197	.
CCOc1ccc(S(=O)(=O)N2CCCC(C(=O)NCCN3CCOCC3)C2)cc1Cl (stereo not given)	-1.2	12.1	5.6	3.5	-1.6	5617	2.7
CC1(c2ccccc2)NC(=O)N(CC(=O)Nc2ccc(S(=O)(=O)NC3=NCCCCC3)cc2)C1=O (stereo not given)	-21.9	-1.7	1.6	.	1.3	2702	0.8
COC(=O)c1ccccc1NC(=O)Cn1cnc2ccc(S(=O)(=O)N3CCC(C)CC3)cc2c1=O	3.3	13.5	2.5	-2.0	5.6	3705	2.4
CN(C)S(=O)(=O)c1ccc2c(c1)C(=Cc1cc3c([nH]1)CCCC3)C(=O)N2	.	4.4	5.4	.	-14.6	.	10.0
COc1ccc(NC(=O)NNC(=O)C(C)Oc2ccc(C(C)C)cc2)c(OC)c1 (stereo not given)	-19.9	-5.2	8.3	-5.6	4.0	5781	0.9
COc1ccc(C(=O)N2CCC3(CC2)OCCO3)cc1	-1.8	-10.8	-10.9	-3.3	1.8	3422	2.8
CC(=NNC(=S)Nc1ccccc1C)C1Cc2ccccc2C(=O)O1 (stereo not given)	.	4.2	-0.7	.	17.7	.	3.3
Cc1ccc(-c2nn(-c3ccccc3)cc2CNCc2ccccc2)cc1	-1.0	12.7	0.0	6.0	96.9*	4696	60.8
COc1ccc(-n2c(=S)[nH]c3ncccc3c2=O)cc1	-14.2	3.4	-4.9	4.1	-0.3	4644	3.9
CCC1=C(OC(=O)N(CC)CC)N2C(=O)OC(=NCC3CC3)[C@]2(Cc2ccccc2)[C@H]2C1=CC[C@H]1C(=O)N(CC)C(=O)[C@H]12	-23.6	.	.	6.0	.	3047	.
CC(=O)Nc1ccc(S(=O)(=O)/N=C2\SCCN2S(=O)(=O)c2ccc(NC(C)=O)cc2)cc1	-13.6	.	.	-2.0	.	7237	.
CC(C)=CCCC(C)CN1CCC(n2nccc2NC(=O)c2ccc3c(c2)OCO3)CC1 (stereo not given)	-20.2	.	.	-3.1	.	6441	.
CCC1S/C(=N/N=C/c2ccco2)N(Cc2ccccc2C)C1=O (stereo not given)	-11.1	.	.	-6.2	.	3284	.

Next part
SMILES	PrP UTR inh	Mtb hypoxia rep	Mtb hypoxia rep growth	BJeLR lethal	Sa ugtP lethal	Autofluor counter	RN4220 kill
COC(=O)c1ccc(CN2[C@H](C(=O)OC)C[C@@]3(O)[C@@H](O)[C@@H](O)[C@@H](O)C[C@@H]23)cc1	-6.2	.	.	-3.9	.	3468	.
CCN(CC)C(=O)c1nc[nH]c1C(=O)N1CCc2ccccc2C1	-20.0	-1.2	-2.7	.	1.1	3802	7.2
Cc1sc2nc(SCC(=O)N3CCOCC3)[nH]c(=O)c2c1-c1ccccc1	1.7	1.7	-1.6	-5.2	0.7	4604	3.4
COC(=O)c1ccc(NC(=O)COC(=O)COc2cccc3c2OC(C)(C)C3)cc1	-9.9	2.3	-3.2	.	0.9	3092	5.0
CCn1c(CCNC(=O)c2ccc(OC)cc2)nnc1SCc1ccc(Cl)c(Cl)c1	-32.2	-2.2	2.0	-1.1	0.3	10435	2.7
NC(=O)c1nsc(C(=O)N(CC(=O)NC2CCCCC2)c2ccc(Cl)cc2)c1N	-19.0	14.1	2.9	5.0	-2.3	4438	2.7
CCc1ccc(CNC(=O)C2CCN(S(=O)(=O)N3CCC(C)CC3)CC2)cc1	-20.4	9.8	-5.6	0.8	-2.1	5691	-2.0
O=C1CN(C(=O)CNCc2ccccc2Cl)c2ccccc2N1	-14.6	9.6	-1.7	-2.8	1.9	6239	2.2
Cc1cc(C)n2nc(SCC(=O)N/N=C/c3ccc(F)cc3)nc2n1	-3.4	.	.	13.3	.	7033	.
C/C(=N\NC(=O)CSCc1ccccc1Cl)c1cccc(NC(=O)c2ccccc2)c1	-2.1	.	.	1.9	.	10517	.
Cc1cccc(N/C(N)=N/c2nc(C(F)(F)F)cc(C(F)(F)F)n2)c1	-15.9	-1.5	4.6	-5.6	2.3	2157	0.5
Cc1cccc(-[n+]2c(C)cc(C)c3c(=O)[nH]c(=O)[nH]c32)c1	5.8	.	.	3.8	.	1867	.
Cc1[nH]c2ccccc2c1C=NNC(=O)c1cccc(S(=O)(=O)Nc2ccccc2Cl)c1	.	-0.1	4.3	.	-4.0	.	1.5
COc1cccc(N2CCN(C(=O)CCNS(=O)(=O)c3ccc4c(c3)c(=O)n(C)c(=O)n4C)CC2)c1	-18.6	-1.7	-2.5	-3.2	2.0	4374	2.5
CC(=O)N1N=C(c2ccccc2OC(=O)/C=C/c2ccccc2)CC1c1ccccc1 (stereo not given)	.	15.0	1.5	-0.1	10.5	.	-1.2
CCOc1cc(S(=O)(=O)Nc2ccccc2CC)ccc1Cl	0.9	9.6	7.3	-10.2	-16.7	7599	13.6

In another format: entries from further up
Results follow in this order: PrP UTR inh | Mtb hypoxia rep | Mtb hypoxia rep growth | BJeLR lethal | Sa ugtP lethal | Autofluor counter | RN4220 kill
- O=C1CN(C(=O)CNCc2ccccc2Cl)c2ccccc2N1
    -14.6 | 9.6 | -1.7 | -2.8 | 1.9 | 6239 | 2.2
- Cc1cc(C)n2nc(SCC(=O)N/N=C/c3ccc(F)cc3)nc2n1
    -3.4 | . | . | 13.3 | . | 7033 | .
- C/C(=N\NC(=O)CSCc1ccccc1Cl)c1cccc(NC(=O)c2ccccc2)c1
    -2.1 | . | . | 1.9 | . | 10517 | .

Random draw from the library; about 4.1% have a hit in one of these screens.
